Screening data (PubChem BioAssay)
Vaccinia stage: Vaccinia orthopox stage-specific inhibition | Vaccinia-infected cells, mCherry/Venus stage reporter fluorescence; stronger effect = lower value; some inactives read as strong as hits | activity change (mCherry), % (test concentration not listed) | 89,000 compounds, 0.01% hits;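 active = mCherry past -33% and 40 or more points under the early reporter, replicates agreeing; inconclusive = past -33% without that gap or agreement; tested in A549 cells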;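 note: scaled between vehicle wells and reference inhibitor wells; 23 nL library stock went into each well; one replicate is shown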
Vaccinia stage Venus: also measured in Vaccinia stage; calls as there; activity change (Venus), %; measured here: Venus reporter, other viral stage;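 negative = less Venus signal; first of two replicates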
Starred values were filed as active, the others as inactive; ? = inconclusive; . = no result given; & = joins results of further samples. Only part of the results is shown; rates above refer to the full screens.

SMILES | Vaccinia stage | Vaccinia stage Venus
C[C@@H]1CN([C@H](C)CO)C(=O)c2cccc(NC(=O)CCCCCC(=O)Nc3ccccc3N)c2O[C@@H]1CN(C)Cc1ccccc1 | -6 | -11
CN1C(=O)c2cc(NC(=O)c3ccccc3Cl)ccc2OC[C@@H]2O[C@H](CC(=O)O)CC[C@@H]21 | 12 | 8
CCC(=O)Nc1ccc2c(c1)C(=O)N(C)C[C@H](OC)[C@H](C)CN(C(=O)c1ccccn1)[C@H](C)CO2 | 4 | 6
N#C[C@H]1[C@@H](c2ccc(C3=CCCC3)cc2)[C@@H](CO)N1C(=O)C1CCOCC1 | 14 | 9
C[C@@H]1CN([C@@H](C)CO)C(=O)Cc2cc(NC(=O)C3CCCCC3)ccc2O[C@H]1CN(C)Cc1ccccc1 | ? | .
Cc1noc(C)c1NC(=O)N(C)C[C@@H]1Oc2c(NS(C)(=O)=O)cccc2C(=O)N([C@@H](C)CO)C[C@H]1C | 12 | 5
CN1CCN(C(=O)C[C@@H]2C[C@H]3c4cc(NC(=O)C5CCC5)ccc4O[C@H]3[C@H](CO)O2)CC1 | 8 | 14
Cc1ccc(S(=O)(=O)Nc2ccc3c(c2)CC(=O)N([C@H](C)CO)C[C@H](C)[C@H](CN(C)S(=O)(=O)c2cn(C)cn2)O3)cc1 | 11 | 6
N#C[C@@H]1[C@@H](c2ccc(-c3cncnc3)cc2)[C@H](CO)N1C(=O)C1CCOCC1 | 4 | -4
C[C@@H]1CCCCO[C@@H](CN(C)S(=O)(=O)c2cccs2)[C@H](C)CN([C@@H](C)CO)C(=O)c2cc(NC(=O)Nc3ccccc3)ccc2O1 | 5 | 15
C[C@@H]1CN([C@H](C)CO)C(=O)c2cc(N(C)C)ccc2O[C@H]1CN(C)Cc1ccc(-c2ccccc2)cc1 | -18 | -15
C/C=C/c1ccc([C@@H]2[C@@H](CO)N(C(C)=O)C23CN(C(=O)NC2CCCCC2)C3)cc1 | -20 | -6
CCC(=O)N(C)C[C@@H]1Oc2cc(C#C[C@H](C)O)ccc2S(=O)(=O)N([C@H](C)CO)C[C@@H]1C | 6 | 4
C[C@@H]1CN([C@H](C)CO)C(=O)c2cccc(NC(=O)Nc3ccc(C(F)(F)F)cc3)c2O[C@H]1CN(C)S(=O)(=O)c1ccc(Cl)cc1 | 5 | -3
C[C@H](CO)N1C[C@H](C)[C@@H](CN(C)S(=O)(=O)c2ccc(-n3cccn3)cc2)OCc2cnnn2CCCC1=O | 0 | 2
Cc1noc(C)c1S(=O)(=O)Nc1ccc2c(c1)CC(=O)N([C@H](C)CO)C[C@H](C)[C@H](CN(C)C(=O)Nc1ccc(C(F)(F)F)cc1)O2 | 6 | 2
CC(=O)N(C)C[C@H]1Oc2ncc(C#Cc3ccccn3)cc2C(=O)N([C@@H](C)CO)C[C@@H]1C | 15 | 19
Cc1ccc(S(=O)(=O)Nc2ccc3c(c2)C(=O)N([C@@H](C)CO)C[C@@H](C)[C@@H](CN(C)Cc2ccccc2)O3)cc1 | -9 | -4
COCC(=O)N(C)C[C@H]1Oc2cc(-c3cccnc3)ccc2S(=O)(=O)N([C@@H](C)CO)C[C@@H]1C | 14 | 6
CCC(=O)N1[C@H](CO)[C@@H]2c3ccccc3N(S(=O)(=O)c3ccccc3F)C[C@@H]21 | 14 | 17
C[C@@H]1CN([C@H](C)CO)C(=O)c2cc(-c3cccc(C#N)c3)cnc2O[C@@H]1CN(C)C(=O)C1CC1 | 45 | 23
C[C@@H]1CN([C@@H](C)CO)C(=O)c2cc(-c3cccnc3)cnc2O[C@H]1CN(C)S(C)(=O)=O | 10 | 7
COc1ccc(NC(=O)N(C)C[C@@H]2OCCCC[C@@H](C)Oc3ccc(NS(=O)(=O)c4ccccc4)cc3C(=O)N([C@H](C)CO)C[C@H]2C)cc1 | 4 | -10
N#C[C@@H]1[C@H](c2ccccc2C2=CCCCC2)[C@@H](CO)N1C(=O)Cc1ccncc1 | -7 | 1
COc1ccc2c3c(n(C)c2c1)[C@@H](CO)N(Cc1cc(F)ccc1F)CC31CN(C(=O)C2CC2)C1 | 9 | -1
CC(C)C#Cc1cnc2c(c1)C(=O)N([C@H](C)CO)C[C@@H](C)[C@H](CN(C)C(=O)Nc1ccccc1)O2 | 5 | 3
O=S(=O)(Cc1ccccc1)N1CCCCN2[C@H](CO)[C@H](c3ccc(-c4ccc(F)cc4)cc3)[C@@H]2C1 | ? | .
O=C(NCc1ccccc1)C1=C[C@H](c2csc3ccccc23)C[C@H](OCCCCO)O1 | -11 | -3
COc1ccccc1S(=O)(=O)N[C@@H]1CC[C@@H](CCn2cc(C3CC3)nn2)O[C@@H]1CO | 3 | 2
O=C(CC1CC1)N[C@@H]1C[C@@H]2O[C@@H](CO)CC[C@@H]2O[C@@H]1CCc1ccc(C#Cc2ccccc2)cc1 | ? | .
C[C@@H]1CN([C@@H](C)CO)C(=O)c2cc(NC(=O)C3CCCCC3)ccc2O[C@H]1CN(C)Cc1ccccc1 | -2 | -2
COc1ccc2c3c([nH]c2c1)[C@@H](CO)N(Cc1ccccc1OC)CC31CN(S(=O)(=O)c2ccccc2)C1 | 8 | 3
CO[C@@H]1CN(C)C(=O)c2cc(NC(=O)c3cccc(F)c3)ccc2OC[C@H](C)N(CC2CC2)C[C@@H]1C | -4 | 7
CO[C@@H]1CN(C)C(=O)c2ccc(NC(=O)Nc3cc(F)ccc3F)cc2OC[C@H](C)NC[C@@H]1C | -16 | -5
C[C@H]1CN([C@@H](C)CO)C(=O)c2cc(NS(C)(=O)=O)ccc2O[C@H]1CN(C)Cc1ccc(C(=O)O)cc1 | 10 | -5
COc1ccc(C#Cc2ccc3c(c2)[C@H]2[C@H](CCN2C(=O)c2ccccn2)[C@H](CO)N3)cc1 | -21 | -16
COc1ccc(CN(C)C[C@@H]2Oc3ccc(NC(=O)Nc4cccc5ccccc45)cc3CC(=O)N([C@H](C)CO)C[C@H]2C)cc1 | -3 | -2
CCC(=O)N(C)C[C@@H]1Oc2ncc(-c3ccc(F)cc3)cc2C(=O)N([C@@H](C)CO)C[C@H]1C | 33 | 12
C[C@@H]1CN([C@H](C)CO)C(=O)c2cccc(NC(=O)c3ccncc3)c2O[C@@H]1CN(C)CC1CC1 | 1 | 14
C[C@H](CO)N1C[C@H](C)[C@H](CN(C)C(=O)Nc2ccc(F)cc2)Oc2ncc(Br)cc2C1=O | 16&26 | 7&12
CCCN(C)C[C@H]1OCCCC[C@H](C)Oc2ccc(NC(=O)Nc3ccc(C(F)(F)F)cc3)cc2C(=O)N([C@@H](C)CO)C[C@H]1C | -5 | -4
C[C@@H]1CN([C@H](C)CO)C(=O)c2cc(C#CC3(O)CCCC3)cnc2O[C@@H]1CN(C)S(=O)(=O)c1cccc(F)c1 | 3 | -5
C[C@@H]1CN([C@H](C)CO)C(=O)c2cc(NS(C)(=O)=O)ccc2O[C@@H]1CN(C)Cc1ccc(Cl)c(Cl)c1 | -14 | -16
COc1cccc(S(=O)(=O)N2C[C@@H](O)COC[C@@H]3O[C@H](CC(=O)Nc4ccccc4)CC[C@H]32)c1 | -10 | -9
COCc1cn(CC[C@H]2CC[C@@H](NC(=O)Nc3ccc(C(F)(F)F)cc3)[C@@H](CO)O2)nn1 | 12 | 8
Cc1noc(C)c1NC(=O)Nc1ccc2c(c1)C(=O)N([C@@H](C)CO)C[C@@H](C)[C@@H](CN(C)C(=O)NC(C)C)OCCCC[C@@H](C)O2 | 13 | -1
COc1ccccc1CNC(=O)C[C@@H]1CC[C@H]2[C@@H](COC[C@H](O)CN2C(=O)Nc2ccc(C(F)(F)F)cc2)O1 | ? | .
COc1ccc(NC(=O)N(C)C[C@H]2Oc3ccc(NC(=O)C4CC4)cc3C(=O)N([C@H](C)CO)C[C@@H]2C)cc1 | -1 | 0
COc1ccccc1S(=O)(=O)N(C)C[C@@H]1Oc2ncc(-c3ccc(C)cc3)cc2C(=O)N([C@H](C)CO)C[C@H]1C | -22 | -20
C[C@@H]1CN([C@H](C)CO)C(=O)c2cccc(NC(=O)C3CCCCC3)c2O[C@@H]1CN(C)Cc1ccc(C(F)(F)F)cc1 | -5 | -1

Next structures:
SMILES | Vaccinia stage | Vaccinia stage Venus
CO[C@H]1CN(C)C(=O)c2ccc(NC(=O)CC(F)(F)F)cc2OC[C@H](C)N(C(C)=O)C[C@H]1C | 17 | 19
C[C@@H]1CN([C@H](C)CO)S(=O)(=O)c2ccc(C#CCN(C)C)cc2O[C@@H]1CN(C)Cc1cccnc1 | 19 | 7
C[C@H]1CN([C@@H](C)CO)C(=O)Cc2cc(N(C)C)ccc2O[C@@H]1CN(C)Cc1ccccc1 | 0 | -11
CCN1[C@@H]2c3ccc(C4=CCCCC4)c(=O)n3C[C@@H]2[C@@H](CO)[C@@H]1C(=O)NC1Cc2ccccc2C1 | -9 | -8
CC(C)C#Cc1cnc2c(c1)C(=O)N([C@@H](C)CO)C[C@H](C)[C@H](CN(C)Cc1cccc(F)c1)O2 | -9 | -4
COc1ccccc1-c1cnc2c(c1)C(=O)N([C@@H](C)CO)C[C@@H](C)[C@H](CN(C)Cc1ccc(C(=O)O)cc1)O2 | 15 | 14
O=C(C1CCC1)N1CC2(C1)[C@H](c1ccccc1)[C@@H](CO)N2C(=O)c1ccccn1 | 10 | -3
COCC(=O)Nc1ccc2c(c1)OC[C@@H](C)N(Cc1ccccc1F)C[C@@H](C)[C@@H](OC)CN(C)C2=O | -25 | -23
Cc1noc(C)c1S(=O)(=O)N(C)C[C@@H]1Oc2ccc(NC(=O)Nc3ccc4c(c3)OCO4)cc2CC(=O)N([C@@H](C)CO)C[C@H]1C | 1 | -2
CN(C)C(=O)C[C@@H]1C[C@@H]2c3cc(NC(=O)C4CCOCC4)ccc3O[C@@H]2[C@@H](CO)O1 | 3 | -6
C[C@@H]1CCCCO[C@H](CN(C)Cc2ccc(C(F)(F)F)cc2)[C@@H](C)CN([C@@H](C)CO)C(=O)c2cc(NS(=O)(=O)c3cccs3)ccc2O1 | ? | .
COCC#Cc1ccc([C@H]2[C@H]3CN(C(=O)C4CC4)CC(=O)N3[C@H]2CO)cc1 | -8 | -14
C[C@@H]1CN([C@@H](C)CO)C(=O)c2cc(NC(=O)CCCCCC(=O)Nc3ccccc3N)ccc2O[C@H]1CN(C)S(=O)(=O)c1ccc(F)cc1 | 9 | 0
CC=Cc1ccc2n(c1=O)C[C@@H]1[C@@H](CO)[C@H](C(=O)NCc3ccccc3F)N(CCC)[C@H]21 (mixture of isomers) | 21 | 11
COc1ccc(NC(=O)N(C)C[C@H]2Oc3ccc(NC(=O)Nc4ccccc4)cc3CC(=O)N([C@@H](C)CO)C[C@H]2C)cc1 | 11 | 11
C[C@H]1CN([C@@H](C)CO)S(=O)(=O)c2ccc(Br)cc2O[C@@H]1CN(C)Cc1cncnc1 | 22 | -4
CC(C)C#Cc1cnc2c(c1)C(=O)N([C@@H](C)CO)C[C@H](C)[C@H](CN(C)C(=O)CCN1CCCCC1)O2 | -8 | -3
C[C@H](CO)N1C[C@H](C)[C@H](CN(C)C(=O)Oc2ccccc2)OCc2cnnn2CCCC1=O | 11 | 7
COc1ccccc1S(=O)(=O)N(C)C[C@@H]1Oc2cc(/C=C/c3ccccc3)ccc2S(=O)(=O)N([C@@H](C)CO)C[C@H]1C | -5 | 2
O=C(C[C@@H]1C[C@H]2c3cc(NC(=O)Nc4ccccc4F)ccc3O[C@H]2[C@@H](CO)O1)NCc1ccncc1 | -1 | 0

Molecules listed so far containing a thiophene ring, fused or not, in the order listed:
SMILES | Vaccinia stage | Vaccinia stage Venus
C[C@@H]1CCCCO[C@@H](CN(C)S(=O)(=O)c2cccs2)[C@H](C)CN([C@@H](C)CO)C(=O)c2cc(NC(=O)Nc3ccccc3)ccc2O1 | 5 | 15
O=C(NCc1ccccc1)C1=C[C@H](c2csc3ccccc23)C[C@H](OCCCCO)O1 | -11 | -3
C[C@@H]1CCCCO[C@H](CN(C)Cc2ccc(C(F)(F)F)cc2)[C@@H](C)CN([C@@H](C)CO)C(=O)c2cc(NS(=O)(=O)c3cccs3)ccc2O1 | ? | .

Five structures already listed, sorted by SMILES length, low to high:
SMILES | Vaccinia stage | Vaccinia stage Venus
COCC#Cc1ccc([C@H]2[C@H]3CN(C(=O)C4CC4)CC(=O)N3[C@H]2CO)cc1 | -8 | -14
CC(C)C#Cc1cnc2c(c1)C(=O)N([C@@H](C)CO)C[C@H](C)[C@H](CN(C)C(=O)CCN1CCCCC1)O2 | -8 | -3
COc1ccccc1S(=O)(=O)N(C)C[C@@H]1Oc2cc(/C=C/c3ccccc3)ccc2S(=O)(=O)N([C@@H](C)CO)C[C@H]1C | -5 | 2
C[C@@H]1CN([C@@H](C)CO)C(=O)c2cc(NC(=O)CCCCCC(=O)Nc3ccccc3N)ccc2O[C@H]1CN(C)S(=O)(=O)c1ccc(F)cc1 | 9 | 0
C[C@@H]1CCCCO[C@H](CN(C)Cc2ccc(C(F)(F)F)cc2)[C@@H](C)CN([C@@H](C)CO)C(=O)c2cc(NS(=O)(=O)c3cccs3)ccc2O1 | ? | .

Following part:
SMILES | Vaccinia stage | Vaccinia stage Venus
O=C(NC[C@@H]1CC[C@@H]2[C@@H](CN2C(=O)C2CCOCC2)O1)c1cccnc1 | 17 | 11
COc1ccc(NC(=O)N(C)C[C@H]2Oc3c(NC(=O)NC4CCCCC4)cccc3C(=O)N([C@@H](C)CO)C[C@H]2C)cc1 | -7 | 4
COc1ccc(CN(C)C[C@H]2Oc3ccc(NC(=O)Cc4cn(C)c5ccccc45)cc3C(=O)N([C@H](C)CO)C[C@H]2C)cc1 | -24 | -15
C[C@@H]1CN([C@@H](C)CO)C(=O)c2cc(C#Cc3ccncc3)cnc2O[C@H]1CN(C)S(=O)(=O)c1ccccc1F | -28 | -18
O=C(C[C@@H]1CC[C@@H](NC(=O)c2ccccn2)[C@@H](CO)O1)NCc1cc(F)cc(F)c1 | 19 | 11
C[C@@H]1CCCCO[C@@H](CN(C)S(C)(=O)=O)[C@@H](C)CN([C@@H](C)CO)C(=O)c2cc(NC(=O)c3ccccc3)ccc2O1 | -11 | 5
